NPYLR7 agonist: mosquito NPYLR7 agonism; HEK293T NPYLR7/Galpha15, GCaMP6s calcium fluorescence; activation, % at 10 µM; 0.15% of 270,000 active; AID 1259423; in the data active means activation above about 40%;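 further: 0% = vehicle and 100% = reference agonist at the receptor; some compounds past the cut are filed as inactive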
NPYLR7 agonist max-min: recorded beside NPYLR7 agonist, whose call it bears; activation, %; measured here: Max-Min RFU normalised activation; some inactives read as strong as hits;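 span of the calcium signal over five minutes; 0% = vehicle and 100% = native peptide agonist; compound fluorescence can raise it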
An asterisk follows results filed as active; & = joins results of further samples.

SMILES | NPYLR7 agonist | NPYLR7 agonist max-min
COc1cccc(C2CC3C(=O)C=CC2N3Cc2ccccc2)c1 (stereo not given) | 5 | 11
N#Cc1ccc(NCc2cn3c(n2)CCCC3)cc1C(F)(F)F | 14 | 6
C=C1C2C[C@]3(C4CC5[C@@]6(C)CC[C@H](O)[C@@]5(C3CC2=O)C4[N+]([O-])(CC)C6)[C@@H]1O (stereo not given in full) | 3 | -1
c1n[nH]cc1C1CCCNC1 (stereo not given) | 1 | -4
O=C(Cc1csc2nc(-c3ccccc3)cn12)N1CCN(Cc2ccccc2)CC1 | 2 | 1
COC(=O)C1C(=N)Oc2cc(C)n(C)c(=O)c2C12C(=O)N(CC(C)C)c1ccccc12 (stereo not given) | 4 | 4
C[C@@H]1CC[C@H]2[C@@H](C)C(=O)O[C@@H]3O[C@@]4(C)CC[C@@H]1[C@]32OO4 | -2 | -5
COC(=O)C12C3CCCC1C32c1ccccc1 (stereo not given) | -3 | -4
O=C(Cc1cccs1)N1CCN(C(C(=O)N2CCc3ccccc3C2)C2CCCC2)CC1 (stereo not given) | -5 | -4
C=CCOC(=O)N1CCOC2(CNCCOC2)C1 (stereo not given) | 15 | 15
C=CCN1C(=O)NC(=O)/C(=C/c2ccc(N(C)C)c(Br)c2)C1=O | 6 | 4
CCN(C)CCc1c[nH]c2ccc(NC(=O)c3ccco3)cc12 | 30 | 47
Cc1cc(C)cc(N2C(=O)NC(=O)/C(=C\C=C\c3ccco3)C2=O)c1 | 23 | 20
O=c1[nH]c(=S)[nH]c(O)c1Cc1ccccc1 | -10 | -11
COCCNC(C)c1nc2ccccc2c(=O)n1-c1ccc(F)c(Cl)c1 (stereo not given) | 3 | 3
CC(C)C12CN3CCN(CC(C3)/C1=N/O)C2 | 1 | 0
CN(C)C(=Nc1ccc(I)cc1)P(=O)(N(C)C)N(C)C | 5 | 3
Cc1c(P(=S)(N2CCOCC2)N2CCOCC2)cc(C#N)n1C | 5&4 | 1&3
O=C1CC[C@@]2(O)[C@H]3Cc4ccc(O)c5c4[C@@]2(CCN3CC2CC2)[C@H]1O5 | -1&1 | -6&-3
Cc1ccc(C=C2CC3C4CC=C5CC(O)CCC5(C)C4CCC3(C)C2O)o1 (stereo not given) | 4 | 1
COc1cc(NC(=O)N2CCN(CCOC(c3ccc(F)cc3)c3ccc(F)cc3)CC2)cc(OC)c1 | 19 | 12
O=C(NCCSc1ccccn1)C1CC2(CCNCC2)CN1 (stereo not given) | 10 | 6
Oc1ccc(Cl)cc1 | -7 | -12
O=C(Nc1ccc2c(c1)OCO2)c1nn(Cc2ccc(S(=O)(=O)N3CCCc4ccccc43)cc2)c2ccccc12 | 11 | 14
Cn1nc(C2NCCc3[nH]cnc32)c2c(Cl)cccc21 (stereo not given) | 6 | 4

Some of the entries so far, as labelled records.
CC(C)C12CN3CCN(CC(C3)/C1=N/O)C2
  NPYLR7 agonist = 1; NPYLR7 agonist max-min = 0
CN(C)C(=Nc1ccc(I)cc1)P(=O)(N(C)C)N(C)C
  NPYLR7 agonist = 5; NPYLR7 agonist max-min = 3
Cc1c(P(=S)(N2CCOCC2)N2CCOCC2)cc(C#N)n1C
  NPYLR7 agonist = 5&4; NPYLR7 agonist max-min = 1&3
O=C1CC[C@@]2(O)[C@H]3Cc4ccc(O)c5c4[C@@]2(CCN3CC2CC2)[C@H]1O5
  NPYLR7 agonist = -1&1; NPYLR7 agonist max-min = -6&-3

Going on with the list.
SMILES | NPYLR7 agonist | NPYLR7 agonist max-min
N#CC1(c2ccccc2)CCN(C(=O)C2CC=CCC2C(=O)NCc2ccco2)CC1 (stereo not given) | -4 | -14
C/C=C/CC(=O)N1CCCC2(CCN(C)CC2)CC1 | -1 | -9
CCOc1ccccc1C=C1C(=O)NC(=S)NC1=O | 6 | 4
COC(=O)c1ccc(COC(CN2CCN(C(=O)COc3ccc(Cl)cc3)CC2)c2cccc(OC)c2)cc1 (stereo not given) | -1 | -6
C=C[C@@]12CN(C)[C@H]3[C@H]1[C@@]1(C(=O)Nc4ccccc41)C1CC2[C@@H]3CO1 | -10 | -12
COc1cccc(Cc2nsc(Oc3ccc(CC(=O)N4CCN(Cc5ccccc5)CC4)cc3)n2)c1 | -10 | -14
O=C(c1cc(F)cc(F)c1)N1CCN(CCOC(c2ccccc2)c2ccccc2)CC1 | 16 | 11
C=C[C@H]1CN2CC[C@H]1C[C@@H]2[C@@H](O)c1ccnc2ccccc12 | -7 | -12
CC1OC(=O)[C@@H](C(C)C)NC(=O)C(C(C)C)OC(=O)[C@H](C(C)C)NC(=O)C(C)OC(=O)[C@@H](C(C)C)NC(=O)C(C(C)C)OC(=O)[C@H](C(C)C)NC(=O)C(C)OC(=O)[C@@H](C(C)C)NC(=O)C(C(C)C)OC(=O)[C@H](C(C)C)NC1=O (stereo not given in full) | 1 | -9
COc1ccc(Cl)cc1CN1CCN(c2ccccc2O)CC1 | 5 | 3
CN(C)[C@@H]1C[C@@H](C(=O)O)N(C(=O)Cc2ccccc2OCc2ccccc2)C1 | 3 | 12
CN(Cc1ccccc1)Cc1cn(C[C@H]2CC3CCN2C[C@@H]3C(=O)Nc2cccc(O)c2)nn1 (stereo not given in full) | -9 | -11
CC(C)(c1ccc(OCC2CO2)cc1)c1ccc(OCC2CO2)cc1 (stereo not given) | -15 | -22
CN(CCc1ccc(F)cc1)Cc1nc2c(cnn2C)c(=O)[nH]1 | 5 | 5
CCCCCCC1c2c(c3ccccc3oc2=O)OC(=N)C1C#N (stereo not given) | -4 | -6
CCCCC1N2CC3(C)CN1CC(C)(C2)C3=O (stereo not given) | 1 | 8
O=C(O)CN1C(=O)CSC(c2ccccc2Cl)c2c(-c3ccccc3)nn(-c3ccc(F)cc3)c21 (stereo not given) | -1 | -2
CC(C)(C)c1ccc(Cn2nc(C(=O)NOCc3ccccc3)c3ccccc32)cc1 | 18 | 19
CN1CCN2CCN(C(=O)c3cc(=O)n(C)c(=O)n3C)CC2C1=O (stereo not given) | 7 | 2
Cc1ccc(NC(=O)c2cc(C)n(C3CC3)c2C)c(C)c1 | 3 | 2
COCCNC(=O)C1(c2ccc(C)c(OC)c2)CCCC1 | 11 | 9
c1ccc([C@@H]2CN(c3nnnn3-c3ccccc3)[C@@H]3C4CCN(CC4)[C@@H]32)cc1 | 12 | 11
CN(C)C(=O)CN1CC=C(c2cnn(-c3nccc4ccccc34)c2)CC1 | 3 | 2
COc1cccc(NP(=O)(Oc2ccccc2)Oc2ccccc2)c1 | -4 | -4
CNC(=O)O/N=C(\C)SC | -4 | -9
(list continues)
SMILES | NPYLR7 agonist | NPYLR7 agonist max-min
Cc1cnn(CCC(=O)N2C[C@H](c3ccccc3)[C@@H]3[C@H]2C2CCN3CC2)c1 | 7 | 4
CC(C)NC(C)C | -17 | -25
CCCc1cc(C(=O)N2CCC3(CC2)C(=O)NCCN3C)ccn1 | 20 | 7
O=C(Cn1ncc(Cl)c(Cl)c1=O)Nc1ccc(Cl)cc1C(=O)c1ccccc1 | 4 | 2
O=C(CCCN1CCC2(CC1)C(=O)NCN2c1ccccc1)c1ccc(F)cc1 | -2&-1&2 | -4&-4&-23
N=C1c2ccccc2CN1c1ccc(F)c([N+](=O)[O-])c1 | 10 | 8
CCC(C)N1CCCOP1(=S)Sc1ccccc1 (stereo not given) | -9 | -12
COC(=O)c1cc(NC(=O)N2CCN(CCOC(c3ccccc3)c3ccc(N4CCOCC4)cc3)CC2)cc(C(=O)OC)c1 (stereo not given) | -1 | 7
COc1cccc([C@@H]2CCN(C/C=C/c3ccccc3)C[C@H]2O)c1 | 0 | -2
CC(C)c1cc(C(=O)NCc2ccc(O)cc2)nn1C(C)(C)C | 3 | 2
CCS(=O)(=O)N(C)CCCNC(=O)C1C(C)(C)C1(C)C | 4 | 3
O=C(c1cocn1)N1C[C@@H](c2cccc(F)c2F)[C@@H]2[C@H]1C1CCN2CC1 | 3 | 4
CCc1nn(C)c(Cl)c1CN1CC[C@@H](c2cccc(OC)c2)[C@H](O)C1 | 12 | 9
O=C(Nc1ccc2[nH]cc(CCN3CCc4ccccc4C3)c2c1)C(Cl)(Cl)Cl | -15 | -18
CN1[C@H]2CC[C@@H]1CN(C(=O)c1cc(-c3ccccc3)on1)CC2 | 7 | 6
O=C1C2CCCN2C(c2cccs2)N1c1ccccn1 (stereo not given) | 9 | 3
CN(C)C(=O)Oc1ccc2oc(=O)cc(-c3cc4ccccc4o3)c2c1 | -4 | -5
CCC(C)n1[nH]c(=O)c2c1NC(=O)CSC2c1ccc2c(c1)OCO2 (stereo not given) | 1 | 0
COc1cc([C@@H]2c3cc4c(cc3[C@H](OC(C)=O)[C@H]3COC(=O)[C@H]23)OCO4)cc(OC)c1OC | -10 | -16
CN1C(=O)N(C)C(=O)C(CCc2ccncc2)(CCc2ccncc2)C1=O | 8 | 8
C/C(=C\c1csc(C)n1)[C@@H]1C[C@@H]2O[C@@H]2CCC[C@H](C)[C@H](O)[C@@H](C)C(=O)C(C)(C)[C@@H](O)CC(=O)O1 | -5 | -11
CN1CCc2cc3c(cc2[C@H]1[C@@H]1OC(=O)c2c1ccc1c2OCO1)OCO3 | -7 | -10
O=c1oc(-c2ccc(F)cc2)nc2ccccc12 | -4 | -12
COc1ccc(C2(NC3C=CCCC3)CCOCC2)cc1 (stereo not given) | 5 | 5
O=C1NC2CCCCN2Cc2sc(Cl)cc21 (stereo not given) | 1 | 0
(list continues)
SMILES | NPYLR7 agonist | NPYLR7 agonist max-min
NC(Cc1ccc(F)cc1)c1csc(Nc2ncccn2)n1 (stereo not given) | 1 | 2
CCNC(Cc1ccc(C)cc1)C1CC1 (stereo not given) | 18 | 9
COCC(C)NC(=O)c1nn(Cc2ccc(S(=O)(=O)N(C)OC)cc2)c2ccccc12 (stereo not given) | -4 | 10
O=[N+]([O-])c1ccc(C=NNP(=S)(c2ccccc2)c2ccccc2)o1 | 3 | 2
COc1cccc(C=C2C(=O)NC(=S)NC2=O)c1 | -2 | -4
COC(=O)C1C(=N)Oc2cc(C)[nH]c(=O)c2C12C(=O)N(Cc1ccc(Cl)cc1)c1ccccc12 (stereo not given) | 0 | -5
CCCCOC(=O)C1CN1C(CC)C(=O)OCC (stereo not given) | -9 | -16
Cc1noc(C)c1NC(=O)N1CCN2CCN(C)CC2C1 (stereo not given) | 2 | 1
c1csc(N2CCC3(CCNCC3)C2)n1 | 4 | -1
CC(C)Cc1ccc(CN2CCN(C)C(CCO)C2)cc1 (stereo not given) | 7 | 4
Cc1ccccc1OCC(=O)N1CCN(Cc2ccc(-c3noc(-c4cccc(Cl)c4)n3)cc2)CC1 | 8 | 2
N#CC(C#N)=Cc1ccc(Cl)cc1 | -7 | -12
CCCCN(C)C(=O)c1nn(Cc2ccc(C(=O)N(C)c3ccc(OC)cc3)cc2)c2ccccc12 | 0 | 33
Cc1cc(C(=O)N2CCN3CCN(C)CC3C2)c(=O)n(C)c1C (stereo not given) | -4 | -4
Cc1cccc(C(C)C)c1NC(=O)CNC(C)Cc1cnccn1 (stereo not given) | 0 | -4
O=C(Cc1c(F)cccc1F)N1CCN(Cc2cccc(-c3noc(-c4cccs4)n3)c2)CC1 | 2 | 1
COc1ccn(C)c(=O)c1C#N | -6 | -9
O=C(c1nn(Cc2cccc(Oc3ccccc3)c2)c2ccccc12)N1CCN(C(=O)C2CCCO2)CC1 (stereo not given) | 6 | 8
Cc1cccc(Nc2nnc(CC(=O)N3CCN(C4CCCCC4)CC3)s2)c1 | -8 | -9
CC(C)CNC(=O)CN1C(=O)CSC(c2cccc(F)c2)c2c(C(C)(C)C)nn(C)c21 (stereo not given) | 14 | 17
O=c1[nH]c(O)c(CN2CCOCC2)c(=O)[nH]1 | 2 | 0
COc1ccc(C)c2sc(N(CCN3CCOCC3)C(=O)Cc3ccc(F)cc3)nc12 | 12 | 3
COc1c2c(cc3c1OCO3)C13C=C[C@H](OC)CC1N(C2)CC3O (stereo not given in full) | 9 | -6
O=C(c1ccccc1)C1CCCN(Cc2nc(-c3cccs3)no2)C1 (stereo not given) | -6&16 | -8&2
C#C[C@]1(O)CC[C@H]2[C@@H]3CCC4=CC(=O)CC[C@]4(C)[C@H]3CC[C@@]21C | 1 | -4
CN(c1ccccc1)S(=O)(=O)c1ccc(Cn2nc(C(=O)Nc3ccon3)c3ccccc32)cc1 | 7 | 19

Single records, as listed above.
Entry for CC(C)(C)c1ccc(Cn2nc(C(=O)NOCc3ccccc3)c3ccccc32)cc1 : NPYLR7 agonist = 18; NPYLR7 agonist max-min = 19
Entry for CCCc1cc(C(=O)N2CCC3(CC2)C(=O)NCCN3C)ccn1 : NPYLR7 agonist = 20; NPYLR7 agonist max-min = 7

An excerpt; rates above refer to the full screens.
